Bioassay records deposited in PubChem by Johns Hopkins Ion Channel Center.
KCNQ2 enhance – potentiators of rat KCNQ2 potassium channel. O88943. CHO-K1 KCNQ2, FluxOR thallium flux fluorescence; hits give high values. B-score at 10 µM. actives 0.54% (n = 310,000). AID 2239;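 active = fluorescence ratio B-score at least 3 SD of library B-scores, with initial fluorescence B-score within 3 SD, cut at about 5.3 in these data; same plate scores as AID 2156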;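 also: B-score of peak minus minimum over baseline fluorescence ratio after K+ and Tl+ stimulus; positive B-score means potentiation of KCNQ2 with more thallium influx and brighter signal; only the inactives scoring about 0 or higher are listed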
Target sequence (O88943 whole entry, looked up): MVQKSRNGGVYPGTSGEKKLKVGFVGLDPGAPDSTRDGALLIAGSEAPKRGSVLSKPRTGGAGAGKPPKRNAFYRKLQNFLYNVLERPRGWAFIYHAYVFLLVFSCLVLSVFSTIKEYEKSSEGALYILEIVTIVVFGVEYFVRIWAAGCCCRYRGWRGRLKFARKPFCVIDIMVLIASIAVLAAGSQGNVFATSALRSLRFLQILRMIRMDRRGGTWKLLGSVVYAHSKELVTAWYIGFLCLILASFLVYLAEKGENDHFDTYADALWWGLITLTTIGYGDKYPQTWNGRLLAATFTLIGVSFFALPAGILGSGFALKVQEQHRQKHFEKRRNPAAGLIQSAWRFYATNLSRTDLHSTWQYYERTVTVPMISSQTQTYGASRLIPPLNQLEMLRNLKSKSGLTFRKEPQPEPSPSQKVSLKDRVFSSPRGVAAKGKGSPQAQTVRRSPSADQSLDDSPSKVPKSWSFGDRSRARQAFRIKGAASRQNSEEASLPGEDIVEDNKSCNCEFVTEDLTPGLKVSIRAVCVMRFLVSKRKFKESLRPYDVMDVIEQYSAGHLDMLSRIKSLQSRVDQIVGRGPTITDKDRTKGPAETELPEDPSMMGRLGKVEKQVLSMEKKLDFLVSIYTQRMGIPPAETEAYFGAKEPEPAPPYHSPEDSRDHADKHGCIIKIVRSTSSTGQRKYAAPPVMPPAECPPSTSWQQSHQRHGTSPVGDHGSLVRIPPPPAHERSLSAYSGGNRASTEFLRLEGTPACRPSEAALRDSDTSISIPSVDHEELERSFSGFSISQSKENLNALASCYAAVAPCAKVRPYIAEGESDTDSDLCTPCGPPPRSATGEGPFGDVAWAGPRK
KCNQ2 enhance baseline – recorded beside KCNQ2 enhance, whose call it bears; B-score; compound at 10 µM; measured here: initial fluorescence intensity artifact check;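 brightness before thallium and not channel activity; 0 = typical well and far values either way flag optical interference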
An asterisk follows results filed as active. These rows are one share of the data; rates above refer to the full screens.

SMILES	KCNQ2 enhance	KCNQ2 enhance baseline
COc1cccc(OCC(=O)Nc2c3c(nn2-c2ccc(F)cc2)CS(=O)(=O)C3)c1	0.01	0.28
C[C@@H](NC(=O)c1coc(=O)c(Br)c1)c1ccccc1	1.9	0.06
CC(C)CNS(=O)(=O)c1cc(C(=O)O)c(Cl)cc1Cl	1.2	0.35
Cc1ccc(C(=O)NC(C)C2CCCO2)o1 (stereo not drawn)	0.01	0.05
Cc1ccc(NC(=O)C2CC(=O)n3c(nc4ccccc43)N2)cc1Cl (stereo not drawn)	0.23	0.31
Cc1cc(=O)c(C(=O)O)nn1-c1ccccc1[N+](=O)[O-]	0.63	-0.29
CCCCN(C(=O)/C=C/c1ccc(OCC(C)C)c(OCC)c1)c1c(N)n(CCC)c(=O)[nH]c1=O	1.9	-3
CCOc1ccc(CNC(=O)Cn2ccc3cc(S(=O)(=O)N4CCCCCC4)ccc32)cc1	0.61	0.37
COCCCn1c(SCC(=O)Nc2oc(C)c3c(C)n[nH]c(=O)c23)nc2ccccc2c1=O	1.6	-0.44
COc1ccc(CCNC2CC(=O)N(CCc3ccccc3)C2=O)cc1OC (stereo not drawn)	0.08	-2.5
Cc1ccc(C)c(-c2csc(NC(=O)c3cnccn3)n2)c1	0.33	0.09
Cc1cccc(OCC(=O)Nc2cccc(C(=O)Nc3ccccc3C(=O)O)c2)c1	0.51	0.81
O=c1c2cc(Br)ccc2nc(-c2ccc([N+](=O)[O-])cc2)n1O	9.8*	-0.02*
O=C(COc1cc(Cl)ccc1Cl)Nc1ccc2[nH]c(=O)[nH]c2c1	0.68	-0.99
CCCCN1C(=O)N(C)C2C1N(C)C(=O)N2CCCC (stereo not drawn)	0.15	-0.88
CCC1=Nc2cc(C(=O)NCCCN3CCOCC3)ccc2Sc2ccc(Br)cc21	0.46	-1.1
COc1ccc(CCNC(=O)C2CCN(S(=O)(=O)c3cccc4cccnc34)CC2)cc1OC	0.91	-0.64
COc1cccc(-c2ccc(SCC(=O)NC3CCCCC3)nn2)c1	0.01	0.04
O=C(COc1ccccc1Cl)Nc1nnc(S(=O)(=O)N2CCCCCC2)s1	0.03	1.1
O=C(Nc1ccc2c(c1)OCO2)N1CCN(c2cccc(C(F)(F)F)c2)CC1	1.1	0.27
CSc1nc2cc(C)nn2c(-c2ccccc2)c1C#N	0.28	-2.2
O=C(NC1CC2CCCC(C1)N2Cc1ccc(F)cc1)c1ccc(F)cc1 (stereo not drawn)	1.1	1.6
Cc1ccc(C)c(OC(=O)c2ccncc2)c1	0.3	0.64
CCC(Oc1ccccc1)C(=O)NCc1cccnc1 (stereo not drawn)	1	0.02
O=C(CCCN1C(=O)c2cccc3cccc(c23)C1=O)Nc1nccs1	0.04	0.8
Cn1c(N)c(C(=O)COC(=O)CC(NC(=O)c2ccccc2Cl)c2ccccc2)c(=O)n(C)c1=O (stereo not drawn)	0.1	-0.19
CC(=O)Nc1nc(CC(C)C)cc(-c2ccccc2)c1C#N	2.5	0.04
CC(C)c1ccc(NC(=S)N2CCN(Cc3ccccc3)CC2)cc1	0.7	-1.2
NC(=O)c1ccc(NC(=O)c2cccc(Oc3ccccc3)c2)cc1	0.27	0.11
c1ccc(CN2CCC(N3CCC(N4CCCCCC4)CC3)CC2)cc1	0.48	0.44
CC1S/C(=N/N=C/c2cccc([N+](=O)[O-])c2)NC1=O (stereo not drawn)	0.3	-0.46
COc1ccc(CCN=C(N)NS(=O)(=O)c2ccc(C)c(C)c2)cc1	0.36	1.1
CCNS(=O)(=O)c1ccc(NC(=O)c2cncc(Br)c2)cc1	0.71	0.69
O=C(NCc1ccco1)C1CCN(Cc2ccc(F)cc2)CC1	1.1	-1.4
CCOC(=O)c1c(NC(=O)CSc2nc3ccc(OC)cc3[nH]2)sc2c1CC(C)(C)NC2(C)C	0.32	-0.81
NC(=O)C1CCN(c2ccnc3cc(Cl)ccc23)CC1	0.98	0.34
CCCOc1ccc(C2C(C#N)=C(N)Oc3nc[nH]c(=O)c32)cc1OC (stereo not drawn)	0.46	-2
CCOC(=O)c1ccc(NC(=O)NC2CCN(CC(=O)NCc3ccc4c(c3)OCO4)CC2)cc1	0.25	0.69
CCOC(=O)c1cnc(-n2nc(C)cc2C)nc1Nc1ccc(N(C)C)cc1	0.2	0.93
CN1c2ccsc2C(=O)/C(=C\Nc2cccc(C(F)(F)F)c2)S1(=O)=O	1.6	-0.13

Continued; the last 2 above are carried over.
SMILES	KCNQ2 enhance	KCNQ2 enhance baseline
CCOC(=O)c1cnc(-n2nc(C)cc2C)nc1Nc1ccc(N(C)C)cc1	0.2	0.93
CN1c2ccsc2C(=O)/C(=C\Nc2cccc(C(F)(F)F)c2)S1(=O)=O	1.6	-0.13
COc1ccc(S(=O)(=O)Nc2ccc(F)cc2F)cc1C(=O)N1CCOCC1	0.02	-0.3
Cc1cccc(NC(=O)CN(C)S(=O)(=O)c2ccc(Cl)cc2)n1	0.1	-0.47
CC(C)(Nc1ccccc1)C(=O)c1ccccc1	0.76	-0.37
CCN(CC)S(=O)(=O)c1csc(C(=O)NC2CCCCC2)c1	1.5	1.1
CSc1nc2c(c(=O)[nH]1)C(c1cccc(Cl)c1Cl)CC(=O)N2 (stereo not drawn)	0.15	0.21
Cc1ccc(C)c(CSc2nnc(C)c(=O)n2N)c1	2.3	-0.86
COCCNC(=S)Nc1ccc2[nH]c(=O)[nH]c2c1	1.2	-0.01
C=CCC1(CC=C)CCCN1C(=O)CC1C(=O)NCCN1Cc1ccc(OC)c(OC)c1 (stereo not drawn)	1.1	-0.02
Cc1cccc(OCC(=O)Nc2ccc(CN3CCOCC3)cc2)c1C	1.3	-1.4
CC(=O)Nc1cccc(NC(=O)CSc2nnc(Cc3cccn3C)n2-c2ccc(C)cc2)c1	1.1	0.68
CCOC(=O)c1ccc(NNC(=O)CC)c([N+](=O)[O-])c1	1.1	1
CCn1cc(C(=O)NCCCOC)c(=O)c2cc(S(=O)(=O)N3CCCC3)ccc21	0.51	0.8
ONC(=Nc1ccccc1)C(=Nc1ccccc1)NO	1.3	-1.7
O=C(OCCC1Oc2cccnc2NC1=O)c1ccc(F)cc1 (stereo not drawn)	0.3	-1.8
CC(C)OC(=O)CC(=O)CSc1nc2c(c(-c3cccs3)c1C#N)CCC2	0.14	1.7
CCN(CC)C(=O)c1c(-c2ccccc2)oc2ccc(O)cc12	0.89	-2.6
Cc1ccc(C)c(NC(=S)NNC(=O)c2ccco2)c1	0.65	-0.2
Cc1ccc(-c2nc(=S)c3c(n2Cc2ccco2)CC(C)(C)OC3)cc1	1.5	-0.69
CCCCn1c(N)c(N(CCOC)C(=O)C2CCN(c3ncnc4sc(C)c(C)c34)CC2)c(=O)[nH]c1=O	0.61	-0.41
Cc1noc(C)c1C(=O)Nc1nnc(CC(C)C)s1	0.9	0.41

Shown as comma-separated lines: entries from further up
smiles,KCNQ2 enhance,KCNQ2 enhance baseline
CC(C)OC(=O)CC(=O)CSc1nc2c(c(-c3cccs3)c1C#N)CCC2,0.14,1.7
CCN(CC)C(=O)c1c(-c2ccccc2)oc2ccc(O)cc12,0.89,-2.6

Additional compounds.
SMILES	KCNQ2 enhance	KCNQ2 enhance baseline
C/C(=N\NC(=O)c1cccnc1)c1ccc(OC2OCCOC2Oc2ccc(/C(C)=N/NC(=O)c3cccnc3)cc2)cc1 (stereo not drawn)	0.47	1.8
CC(C)c1ccc(NC2CCCN(C(=O)c3ccncc3)C2)cc1 (stereo not drawn)	0.25	-0.96
Cc1ccc(S(=O)(=O)NCCSc2nnnn2-c2cc(C)ccc2C)cc1	0.86	0.12
CCOC(=O)C1=C(c2ccc(OC)cc2)C(=O)c2ccccc2C1=O	0.09	-1.8
CN(C)CCNC(=S)Nc1ccccc1Cl	0.03	1.1
COc1ccc(CCN(C)C2CCCN(C(=O)c3sccc3C)C2)cc1OC (stereo not drawn)	1.1	-2.1
O=C(Cn1cnc2scc(-c3ccc(F)cc3)c2c1=O)N1CCOCC1	0.17	0.1
CCOc1ccc(OCC)c(NC(=O)C2CCN(S(=O)(=O)c3cnc[nH]3)CC2)c1	1.5	-0.09
CCCn1c(=O)cc(N)n(-c2ccc(OC(F)(F)F)cc2)c1=O	0.31	-0.14
CC(C)[C@H](NC(=O)c1cccc(S(=O)(=O)N2CCOCC2)c1)C(=O)Nc1nc2ccccc2s1	0.02	1.4
CCC(=O)N1CCc2cc(Br)cc(S(=O)(=O)N3CCCC(C(=O)NC(C)(C)C)C3)c21 (stereo not drawn)	2.2	0.43
Cc1cccc2sc(NC(=O)c3ccc(NS(=O)(=O)c4cccs4)cc3)nc12	0.7	-1.4
CS(=O)(=O)Nc1ccccc1C(=O)Nc1cc2c(cc1C(=O)O)OCCCO2	0.91	-2.4
Cc1cc(C)cc(NC(=O)CN2C(=O)NC(C)(c3ccccc3)C2=O)c1 (stereo not drawn)	0.85	-0.01
C/C(=N/NC(=O)c1ccco1)c1cccc(NC(=O)c2ccc(C)o2)c1	0.95	0.08
COc1ccccc1NC(=S)N1CCCC1	0.7	1
Cc1nc(C)c(C(=O)O)c(-c2ccsc2)c1C(=O)O	0.97	0.87
CSC1=NC2(C)CCCCC2C12C=CC(=O)C=C2 (stereo not drawn)	0.01	0.02
CCOC(=O)c1sc(NC(=O)c2ccncc2)nc1C	0.67	-1
CCCCNS(=O)(=O)c1ccc(OC)c2ncccc12	2.5	-2.2
CN1CCN(CC(=O)Nc2nc(-c3ccccc3)cs2)CC1	0.52	0.67
O=C(Nc1cccc(F)c1)c1c(O)c2cccc3c2n(c1=O)CCC3	0.05	-0.72
O=C(NCc1ccc2c(c1)OCO2)c1cc(F)c(F)cc1Cl	1	-0.02
c1ccc2c(c1)CC/C2=N/Nc1nc2ccccc2[nH]1	0.06	1.9
CCCc1nc(SCc2ccccn2)c2c(=O)n(C)c(=O)n(C)c2n1	2.4	-1.9
COc1ccc(Cl)cc1NC(=O)NC(C)c1ccncc1 (stereo not drawn)	1	-1.9
NC(=O)CC(NC(=S)NCc1ccccc1)C(=O)O (stereo not drawn)	1	3.5
COc1ccc(CSCC(=O)N/N=C/c2ccccc2OCc2ccccc2)cc1	0.62	-0.62
O=S(=O)(Nc1ccc(Br)cc1)c1cccc(NC(=S)NCCN2CCOCC2)c1	0.68	-0.49
C(=C\c1ccccn1)/c1cccnc1	2.1	-1.3
CCOC(=O)c1cn(CC(=O)Nc2ccc(OC)cc2OC)nn1	0.41	1.2
COc1ccc(CN2C(=O)[C@@H]3C(c4ccccc4Cl)=NO[C@@H]3C2=O)cc1	0.82	2.1
O=C(Nc1cccc(-c2cnc3ccccc3n2)c1)c1ccc(Cl)cc1	1.8	-0.13
Cc1cccc(N2C(=O)C(Cl)=C(N3CCOCC3)C2=O)c1	0.78	0.8
OCC[C@H]1C[C@@H](O)[C@H](O)[C@@]2(CCCCO2)O1	1.4	-1.1
CC(=O)c1c(C)nc(-c2ccc3c(c2)OCO3)n1O	0.02	1.9
CC1=CC(C)(C)NC(=S)N1c1cccc2ccccc12	0.31	0.32
COC(=O)c1[nH]c(C)c(/C(O)=C2\C(=O)C(=O)N(CCN3CCOCC3)C2c2cccnc2)c1C (stereo not drawn)	0.78	1.3
O=C(c1cccc(N2CCCC2=O)c1)N1CCN(c2ccc(F)cc2)CC1	0.32	0.6
CC1CC(CCC(=O)NC(=S)Nc2ccc(S(N)(=O)=O)cc2)C(=O)O1 (stereo not drawn)	0.38	0.15

Quoted at random: two compounds from above.
SMILES	KCNQ2 enhance	KCNQ2 enhance baseline
Cc1cccc(N2C(=O)C(Cl)=C(N3CCOCC3)C2=O)c1	0.78	0.8
CC(=O)c1c(C)nc(-c2ccc3c(c2)OCO3)n1O	0.02	1.9

(list continues)
SMILES	KCNQ2 enhance	KCNQ2 enhance baseline
COc1ccc(N(C(=O)Cn2cnc3ccccc32)C(C(=O)NC2CCCCC2)c2ccccc2)cc1 (stereo not drawn)	0.06	-0.81
O=C(NCc1cccnc1)c1cc(Cl)ccc1[N+](=O)[O-]	1.3	-2.6
COCCN1CCN(c2c3c(nc4cc(-c5cccc(F)c5)nn24)CCC3)CC1	1.2	0.04
Cc1ccc2c(c1)N(CC(=O)N1CCC(O)CC1)C(=O)CO2	0.1	-0.77
Cc1ccc2c(c1)c(N=NC(N)=S)c(O)n2Cc1ccccc1	0.32	-0.8
Cc1cc(C)n(-c2nc(C)nc(N)n2)n1	0.07	-0.83
CCOc1ccc(NC(=O)C2CCC(CNc3c(N4CCCCC4)c(=O)c3=O)CC2)cc1 (stereo not drawn)	0.81	0.46
COc1cc(-c2noc(C)c2C#CCO)cc(OC)c1OC	0.96	2.1
Oc1ccc(-c2cc(-c3ccc(O)cc3)nc(-c3ccccc3)n2)cc1	0.01	-1.2
Cc1cc([N+](=O)[O-])nn1CC(=O)NC1CCCCC1	0.58	2.1
Cn1cc(C(=O)c2ccc(Cl)cc2Cl)cc1C(=O)N/N=C(\N)COc1ccc(Cl)cc1Cl	1.4	0.86
CCn1cc(C(=O)NCCC(C)C)c(=O)c2cc(F)c(N3CCN(C)CC3)cc21	0.79	-0.19
CC(C)CSc1n[nH]c(=S)s1	2	2.8
O=C(NC1CCCCC1)N(CCN1CCCC1)Cc1cc2cc3c(cc2[nH]c1=O)OCCO3	0.2	-1.7
COc1cc(/C=C/C(=O)Nc2cccnc2)cc(OC)c1OC	0.71	0.28

An excerpt from above in order of length of the SMILES, highest first.
SMILES	KCNQ2 enhance	KCNQ2 enhance baseline
COc1ccc(N(C(=O)Cn2cnc3ccccc32)C(C(=O)NC2CCCCC2)c2ccccc2)cc1 (stereo not drawn)	0.06	-0.81
CCOc1ccc(NC(=O)C2CCC(CNc3c(N4CCCCC4)c(=O)c3=O)CC2)cc1 (stereo not drawn)	0.81	0.46
Cc1ccc2c(c1)N(CC(=O)N1CCC(O)CC1)C(=O)CO2	0.1	-0.77
Cc1ccc2c(c1)c(N=NC(N)=S)c(O)n2Cc1ccccc1	0.32	-0.8
